# Screens: PubChem, National Center for Advancing Translational Sciences (NCATS)
# TRPML1 blocker: human mucolipin-1 channel inhibition | AID 624415 | TRPML1-inducible cells, Ca2+ dye fluorescence, FDSS; stronger effect = lower value; inhibition of EC80 agonist-evoked calcium signal | 390,000 tested, 0.02% active | activity change, negative = inhibition, % (no concentration beside the values); in the data active means activity change below about -50%; inconclusive means about -30% to -50%; inactive means above about -30%;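 note: stimulus is agonist 54-4 at its EC80 concentration; % is set by controls: 0 for no effect and ±100 for the full control effect; compound concentration not given in the record; the text of the record puts the active cut at -80%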
# Target sequence (Q9GZU1 whole entry, looked up): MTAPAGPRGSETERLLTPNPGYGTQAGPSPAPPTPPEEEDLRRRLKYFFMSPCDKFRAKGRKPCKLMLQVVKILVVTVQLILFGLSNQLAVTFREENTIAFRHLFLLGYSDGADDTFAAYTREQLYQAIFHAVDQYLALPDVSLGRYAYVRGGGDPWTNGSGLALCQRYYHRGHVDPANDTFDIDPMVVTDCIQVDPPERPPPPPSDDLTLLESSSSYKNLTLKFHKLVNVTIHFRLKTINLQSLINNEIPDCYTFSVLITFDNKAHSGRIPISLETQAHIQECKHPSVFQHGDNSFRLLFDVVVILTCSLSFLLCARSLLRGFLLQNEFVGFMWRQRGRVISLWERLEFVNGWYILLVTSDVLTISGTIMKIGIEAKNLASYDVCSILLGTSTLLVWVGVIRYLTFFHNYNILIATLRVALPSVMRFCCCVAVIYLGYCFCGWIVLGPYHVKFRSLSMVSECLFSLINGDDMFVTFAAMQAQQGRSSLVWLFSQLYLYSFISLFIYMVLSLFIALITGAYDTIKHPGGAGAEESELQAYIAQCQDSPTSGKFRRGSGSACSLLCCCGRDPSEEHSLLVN
#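 TRPML1-DL cells, Tet-induced overnight (~16 h, 37 °C) at 1,500 cells/well, were loaded with Ca8 no-wash dye plus quencher for 45-90 min at room temperature. Compounds were pinned during FDSS kinetic reading; agonist 54-4 at EC80 (4 uM final) then added.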
# D2 agonist: human D2 receptor agonism in beta-arrestin assay; DiscoveRx PathHunter D2 beta-arrestin, luminescence, 90 min; 100% = 57 uM dopamine signal; 360,000 tested, 0.084% active; P14416; AID 624465; activation, % (no concentration beside the values); in the data active = activation above about 40%; inconclusive = about 15% to 40%; inactive = below about 15%; note: compound concentration not given in the record; the text of the record calls up to 30% inactive
# Target sequence (P14416 whole entry, looked up): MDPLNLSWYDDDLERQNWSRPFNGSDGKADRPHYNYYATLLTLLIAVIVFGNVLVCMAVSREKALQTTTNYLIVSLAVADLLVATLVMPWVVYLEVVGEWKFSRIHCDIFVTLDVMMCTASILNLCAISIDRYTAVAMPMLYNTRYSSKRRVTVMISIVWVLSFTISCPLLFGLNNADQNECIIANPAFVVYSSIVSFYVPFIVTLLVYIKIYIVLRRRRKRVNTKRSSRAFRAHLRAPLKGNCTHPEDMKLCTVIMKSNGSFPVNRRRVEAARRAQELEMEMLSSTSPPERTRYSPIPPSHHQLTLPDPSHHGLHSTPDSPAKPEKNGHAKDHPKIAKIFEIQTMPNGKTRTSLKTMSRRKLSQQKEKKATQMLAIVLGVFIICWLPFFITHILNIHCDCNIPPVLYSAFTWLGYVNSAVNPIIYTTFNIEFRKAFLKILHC
#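 Agonist mode: compounds alone added to overnight-plated D2 PathHunter cells for 90 min at 37 C, with 57 uM final dopamine (EC100) defining full response. Beta-arrestin recruitment detected by chemiluminescent reagent, read after 1 h at ambient temperature.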
# Six1-Eya2 inh: Six1/Eya2 interaction inhibition | Q15475+O00167 | AlphaScreen GST-Six1/His-Eya2 binding, biochemical; stronger effect = lower value; control for the full effect not named in the record | activity change, % (no concentration beside the values) | 360,000 tested, 0.56% active | AID 651725; in the data active = activity change below about -65%; inconclusive = about -30% to -65%; inactive = above about -30%; note: % is set by controls: 0 for no effect and ±100 for the full control effect; compound concentration not given in the record
#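 Compounds are tested against tagged Six1 and Eya2 proteins bridged by glutathione donor and nickel acceptor beads; after a one-hour incubation at 37 °C without light, AlphaScreen emission is recorded.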
# TRPML1 agonist: human mucolipin-1 channel agonism. Q9GZU1. AID 624414. 410,000 tested, 0.12% active. TRPML1-expressing cells, Ca2+ dye fluorescence, FDSS; host cell line not named in the record; reference of the full effect not given here. activation, % (concentration not given with the values); in the data active = activation above about 50%; inconclusive = about 30% to 50%; inactive = below about 30%; note: 0% is about no effect; the text of the record puts the active cut at 80%
#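 Tet-induced TRPML1-DL cells, 1,500 per well, cultured overnight, were loaded with a no-wash Ca2+ dye for 45–90 min. Calcium fluorescence was recorded on the FDSS for 110 s after compound addition, before the EC80 agonist (4 uM 54-4) was added.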
# PINK1 expr mod: PINK1 expression modulation. 410,000 tested, 0.2% active. AID 624263. Potency, µM (series often up to 76.6 µM), without a hit: at the highest dose activation (PINK1 increase), hits mostly activators. PINK1 immunofluorescence, high-content cytometry, 24 h; active = well fitted activation curve with a large enough effect; inconclusive = small, poorly fitted or top-dose-only effect; inactive = flat fitted curve, though single readings scatter; cell line not stated here;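 note: potency is the fitted concentration of half-maximal effect; % of control where 0% means no effect; nearly all actives have a fitted effect of over 65% in size; a mitochondrial uncoupler was the plate control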
#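 A stable cell line was treated with compounds at 5 concentrations for 24 hours, with CCCP as control. PINK1 levels and mitochondrial localization were measured by immunofluorescence with mitochondrial, cell and nuclear markers after fixation, read by laser-scanning cytometry.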
# CtBP-E1A inh: inhibitors of CtBP/E1A interaction. activity change, % (concentration not given with the values). 340,000 tested, 0.49% active. AlphaScreen GST-E1A/His-CtBP binding, 1536-well; stronger effect = lower value; control for the full effect not named in the record; in the data active means activity change below about -65%; inconclusive means about -30% to -65%; inactive means above about -30%; note: % is set by controls: 0 for no effect and ±100 for the full control effect
#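 GST-E1A and His-tagged CtBP (125 nM each as 5X stock) were preincubated with pin-transferred compound for 2 h at 37 °C in the dark, then glutathione donor and nickel acceptor beads were added for 1 h before AlphaScreen reading.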
# Active calls of the source: *; ? = inconclusive; . = no result given; & = joins results of further samples; [ ] = remark or other dose.
SMILES,TRPML1 blocker,D2 agonist,Six1-Eya2 inh,TRPML1 agonist,PINK1 expr mod,CtBP-E1A inh
CCCCc1c(O)nc(SCC(=O)Nc2ccc(OC)cc2)n(-c2ccc(C)c(C)c2)c1=O,24,-0.1,2,-0.2,1.7%,-8
O=C(O)CC(NC(=O)c1ccc2c(c1)OCO2)c1cccc([N+](=O)[O-])c1 (stereo unspecified),-18,-6.4,6,0.3,2.3%,-6
CCOc1ccccc1C1NC(=O)c2ccccc2O1 (stereo unspecified),0,-6.4,-2,0.7,3.4%,-13
Fc1ccc(-c2nc3c4ccccc4ccn3c2Cc2ccsc2)cc1,-9,-6.4,5,0.3,1.1%,8
Cc1cc(N2CCN(c3ccccc3)CC2)nc(N2CCOCC2)n1,2,0.5,-1,0.0,-0.5%,1
CCOc1ccc(S(=O)(=O)N2CCOCC2)cc1NC(=O)CSCC(=O)Nc1cccc(C)c1,30,-1.6,13,-0.7,0.5%,9
O=C1C2ON(c3ccccc3)C(c3ccccc3F)C2C(=O)N1c1ccccc1 (stereo unspecified),9,1.9,-4,1.3,1.7%,-1
COc1ccc(Cn2c(CCC(=O)Nc3ccc(C)c(C)c3)nc3cccnc32)cc1,-10&25,2.3,0,3.6&6.1,2.8%&4.9%,-4
S=C(Nc1ccc(OCc2ccccc2)cc1)Nc1cccc(Cl)c1Cl,16,-2.4,10,-0.6,2.1%,8
Cc1ccc(C)c(N2N=C(C(=O)NCCN3C(=O)S/C(=C\c4cccnc4)C3=O)CCC2=O)c1,12,-1.9,-7,1.3,1.4%,-12

# Compound profiles (already shown). Order of screens: TRPML1 blocker, D2 agonist, Six1-Eya2 inh, TRPML1 agonist, PINK1 expr mod, CtBP-E1A inh
# `COc1ccc(Cn2c(CCC(=O)Nc3ccc(C)c(C)c3)nc3cccnc32)cc1` is listed as -10&25, 2.3, 0, 3.6&6.1, 2.8%&4.9%, -4
# `Fc1ccc(-c2nc3c4ccccc4ccn3c2Cc2ccsc2)cc1` is listed as -9, -6.4, 5, 0.3, 1.1%, 8
# `CCOc1ccc(S(=O)(=O)N2CCOCC2)cc1NC(=O)CSCC(=O)Nc1cccc(C)c1` is listed as 30, -1.6, 13, -0.7, 0.5%, 9
# `CCOc1ccccc1C1NC(=O)c2ccccc2O1` (stereo unspecified) is listed as 0, -6.4, -2, 0.7, 3.4%, -13
# `S=C(Nc1ccc(OCc2ccccc2)cc1)Nc1cccc(Cl)c1Cl` is listed as 16, -2.4, 10, -0.6, 2.1%, 8

# Continuation:
SMILES,TRPML1 blocker,D2 agonist,Six1-Eya2 inh,TRPML1 agonist,PINK1 expr mod,CtBP-E1A inh
[O-]/[N+](=C/c1cccnc1)c1ccc(Br)cc1,1,1.7,7,-0.6,-2.8%,1
CCOC(=O)C1=C(COC(=O)c2cc(Br)c(Br)s2)NC(=O)NC1C (stereo unspecified),-10,2.5,10,-0.2,-1.0%,9
Fc1ccc(F)c(C2=NNC(=NCC3CCCO3)SC2)c1 (stereo unspecified),16,-6.3,-3,0.2,2.0%,-3
CCC(=O)N1c2ccccc2CC1C(=O)NCCN1CCN(c2cccc(Cl)c2)CC1 (stereo unspecified),-9,.,.,0.2,0.7%,.
CCOc1ccccc1/C=C/c1onc(C)c1S(=O)(=O)N1CCC(C(=O)NC(C)C)CC1,1,-1.4,3,0.4,3.8%,2
O=C(COc1ccc(S(=O)(=O)N2CCCC2)cc1)Nc1ccc2c(c1)OCCO2,-2,1.5,-2,2.8,-1.1%,11
COC(=O)c1ccc2[nH]c(C)c(CN3CCCC3)c(=O)c2c1,7,-4.2,-5,-0.7,1.3%,-2
c1ccc(C2=NCCCN2)cc1,10,0.4,6,1.1,-5.5%[38.3 µM],5
Cc1cc(NC(=O)C2CC(c3cccc(Br)c3)=NO2)no1 (stereo unspecified),-10,-0.3,4,-0.1,0.6%[38.3 µM],8
Cc1cc(-n2c(SCC(=O)NCc3ccccc3)nc3ccsc3c2=O)ccc1Cl,-3,.,.,0.1,0.8%,.
CCOc1ccc(C(=O)NCCN2CCCC2)cc1,-9,7.9,15,1.9,1.5%,.
Cc1ccn2c(NCc3ccccc3)c(-c3cccc(SC4CCCCC4)c3)nc2c1,31,1.4,3&-1,-1.0&0.1,25µM*,1&6
CS(=O)(=O)c1ccc(NC(=O)CCN2C(=O)C3CC=CCC3C2=O)cc1 (stereo unspecified),0,-1.1,4,0.4,3.8%,-16
CCOc1ccccc1N(C)C(=O)Cn1nc(Cc2ccncc2)c2ccccc2c1=O,2,.,.,0.6,0.1%,.
Cc1ccc(NC(=O)c2ccc3nc[nH]c3c2)nc1,7,-2.5,-9,-0.3,6.7%,-21
CCOC(=O)N1CCN(S(=O)(=O)c2ccc(C(=O)N(CCN(C)C)c3nc4ccc(CC)cc4s3)cc2)CC1,1,-0.9,-2,0.7,-1.3%,-8
Cc1nc2cc(-c3ccc(Cl)cc3)nn2c(C)c1CCC(=O)NC(C)c1ccc2c(c1)OCCO2 (stereo unspecified),19,-5.3,0,0.3,3.1%,-2
COc1ccc(N2CC(O)=C(c3nc(-c4ccc(F)cc4)cs3)C2=N)cc1,?,-3.8,2,-0.6,12%,3
CCC(C)c1ccc(OCC(=O)Nc2cccc3ccc(C)nc23)cc1 (stereo unspecified),-4,.,.,-0.1,1.6%,.
CC(C)c1ccc(NC(=O)COC(=O)CCC(=O)c2cccs2)cc1,-9,-5.0,9,-0.5,0.4%,6
CCC(C)CCN1C(N(C)C)=NC[C@@H]1Cc1ccccc1 (stereo partly specified),11,-5.1,0,-0.1,-0.2%,0
CCc1ccc(CNC(=O)Cn2nc(C)c3c(C)n(-c4ccc(C)cc4)nc3c2=O)cc1,-14,.,.,1.1,0.3%,.
O=C(NCC(c1ccc(Cl)cc1)N1CCCCC1)c1ccc(F)cc1 (stereo unspecified),2,.,.,0.6,-2.0%,.
Cc1cc(C)c(S(=O)(=O)NCc2ccc3c(c2)CCN3C(=O)c2ccccc2)c(C)c1,5,.,.,1.3,1.3%,.
CN(Cc1ccc(F)cc1)C(=O)c1cccc(OCc2ccccc2)c1,22,-0.1,10,-1.4,-1.6%,15
C[C@@H]1CN([C@@H](C)CO)C(=O)c2cc(NC(=O)C3CCCCC3)ccc2O[C@@H](C)CCCCO[C@@H]1CN(C)Cc1ccncc1,-4,-2.5,0,-0.4,4.5%,4
O=C(CN1CCN(Cc2cccc(Cl)c2)C1=O)NCc1ccccn1,3,-6.1,9,-1.2,5.0%,1
CN(C)c1ccc(N=Nc2cccc3ccoc23)cc1,3,1.5,-65*,-0.7,-0.8%,.
Cc1ccc(S(=O)(=O)N(C)c2ccc(C(=O)Nc3ccc(C)cn3)cc2)cc1,64,-2.2,1,3.7,-0.6%,-7
COC(=O)c1ccc(CN2CCN(Cc3ccc(C(=O)OC)o3)CC2)o1,1,-3.9,14,-0.1,-0.1%,-1
COc1cc(C(=S)N2CCCC2)cc(OC)c1O,-10,-2.0,1,2.4,5.1%[38.3 µM],-1
O=C(CCNS(=O)(=O)c1cccc2nonc12)Nc1ccc(F)cc1,19,.,.,-0.3,2.0%,.
COCC1CCN(C(=O)c2cc(COc3ccc4ncccc4c3)on2)CC1,8,-3.0,1,-0.3,1.7%,-1
COc1cccc2c(=O)n(CC(=O)N3CCCCCC3)ccc12,-4,0.5,3,-0.5,1.5%,-3
Cc1ccc(N(C(C)C(=O)Nc2cccc(N(C)S(C)(=O)=O)c2)S(C)(=O)=O)cc1 (stereo unspecified),4,5.2,3,-0.8,-0.6%,1
O=C(CCC1CCCC1)c1c(O)c2ccccc2oc1=O,22,-3.7,-1,14,1.5%,-1
CC(=O)/C(C=Nc1noc(C)c1Br)=C(\C)O,25,-3.0,14,-0.5,1.0%,.
Cc1c(-c2ccccc2)cn2c1-c1ccc(C)n1CC2,-5,-5.9,-3,0.4,0.5%,0
CCOc1cccc(C2Oc3nc(SC)nnc3-c3ccccc3N2C(C)=O)c1OC (stereo unspecified),-5,.,.,0.1,0.1%,.
NC(=O)c1ccc(NC(=O)COC(=O)c2cc3c(s2)CCC3)cc1,-5,-0.3,-14,0.1,-3.4%,-20
CCOCCCNC(=O)c1ccc2c(=O)n(Cc3ccc(OC)cc3)c(=O)[nH]c2c1,0,-2.5,7,-0.2,1.8%,.
COc1ccc(CCNC(=O)c2cccc(-n3c(C)nc4cccnc43)c2)cc1OC,-4,.,.,1.5,-1.3%,.
Brc1ccc(COc2cccc3cccnc23)cc1,7,-2.5,0,5.9,2.2%,8
CC1CCN(c2csc3ccc(F)cc3c2=O)CC1,-5,.,.,0.8,-1.3%,.
CCN(NC(=O)C(O)(c1ccccc1)c1ccccc1)C(=O)c1ccccc1,8,-3.5,16,0.9,0.1%,13
CC(=O)Nc1ccc(NC2(C)C(=O)c3ccccc3C2=O)cc1,-6,-0.8,7,0.8,-1.2%,1
O=C(CSc1ccccc1)Nc1nnc(/C=C/c2ccccc2)s1,-14,-2.1,13,1.0,7.7%,17
CN(CCC1CCOCC1)C(=O)CC1C(=O)NCCN1Cc1ccoc1 (stereo unspecified),-18,-0.6,1,-0.6,0.4%,4
CC1CCCCN1C(=O)Cn1c(=O)n(CCC(=O)NCc2ccco2)c(=O)c2sccc21 (stereo unspecified),-9,-4.0,0,0.1,3.7%[38.3 µM],-1
COc1cc(OC)c(NC(=O)C(=O)CC(=O)c2ccc(C)cc2C)cc1Cl,-7,-0.3,-8,-0.6,15%,?
# Next section.
SMILES,TRPML1 blocker,D2 agonist,Six1-Eya2 inh,TRPML1 agonist,PINK1 expr mod,CtBP-E1A inh
CCN(C(=O)COc1ncnc2ccccc12)C1CCCCC1,-13,-3.7,1,0.8,-0.7%,-13
O=S(=O)(Nc1c(O)ccc2ccccc12)c1cccc2ccccc12,-7,?,-5,0.4,7.1%,4
C=CCc1ccccc1OCC(O)CNC1CCCC1 (stereo unspecified),18,0.3,3,5.9,-1.5%,.
CN(C)C(/C=C/Nc1ccccc1F)=C(C#N)C#N,10,-1.5,3,-0.1,-3.4%[38.3 µM],0
CC(C)CNC(=O)c1ccccc1C(=O)NC1(C(=O)NCC(C)C)CCCC1,4,-0.6,-4,-0.6,0.1%,4
Cc1ccc(S(=O)(=O)Nc2cc(C)cn(Cc3ccc(F)cc3)c2=O)cc1,30,-0.2,-11,0.6,-0.4%,-1
O=C(CCC1CCCC1)N1CCN(C(=O)COc2ccccc2)CC1,25,-2.1,-2,-0.7,2.6%,3
CSc1ccccc1C(=O)N(C)C(c1ccccc1)c1ccccc1,17,2.6,7,2.1,?,26
COc1ccc(C2=NOC(Cn3nc(-c4ccccc4)cc3C(=O)NCc3ccc(C)cc3)C2)cc1 (stereo unspecified),8,0.0,-2,-0.6,1.7%,-1
COc1ccc(N=C2SCC(=O)N2C)cc1,-4,-1.6,5,0.0,2.6%,0

# Marked active in PINK1 expr mod (from the list above):
Compound,TRPML1 blocker,D2 agonist,Six1-Eya2 inh,PINK1 expr mod,CtBP-E1A inh
Cc1ccn2c(NCc3ccccc3)c(-c3cccc(SC4CCCCC4)c3)nc2c1,31,1.4,3&-1,25µM*,1&6
